TRPV1 PAM: HTS Assay for Compounds that Act as Potentiators of the Vanilloid Receptor 1 | Transient receptor potential cation channel subfamily V member 1 (Homo sapiens), Q8NER1 | TRPV1-expressing cells, Fluo-8 calcium influx, capsaicin EC20 potentiation; host cell line not named in the record; control for the full effect not named in the record | potentiation, % at 8.33 µM | 320,000 tested, 0.02% active | AID 540277, 2011; active means potentiation above 80%; inconclusive means 30% to 80%; inactive means below 30%; also: 0% is about no effect
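TRPV1-expressing cells were cultured overnight at 35.5C and loaded with Fluo-8 calcium dye for 40 to 90 min at room temperature. After a 10 s baseline, compound was added and calcium influx was read kinetically for 3 min (ex 480/em 520 nm).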
Sfp PPTase inh: qHTS Assay for Inhibitors of Bacillus subtilis Sfp phosphopantetheinyl transferase (PPTase). 4'-phosphopantetheinyl transferase ffp (Bacillus subtilis), Q9F4F7. Biochemical Sfp PPTase activity, qHTS. 310,000 tested, 3.5% active. AID 1490, 2009. Potency, µM, without a hit: max response, negative = inhibition, most hits filed as inhibitors; active = well fitted inhibition curve with a large enough effect; inconclusive = small, poorly fitted or top-dose-only effect, or another doubt; inactive = no such curve, though single readings can be large or run the other way;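 also: the enzyme is Sfp with the accession as filed and its product quenches rhodamine fluorescence; potency is read from the fitted curve at half-maximal effect; 0% = enzyme reaction without inhibitor and -100% = no enzyme wells; top concentration of the series not given in the record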
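Compounds were incubated with enzyme (final 15 nM) for 15 min at room temperature before substrate addition started the reaction. Fluorescence at 525 nm excitation, 598 nm emission was recorded immediately and after 30 minutes.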
D2 potentiator: Beta-Arrestin HTS for Positive Allosteric Modulators of the Human D2 Dopamine Receptor: Potentiators | DiscoveRx D2 beta-arrestin cells, luminescence, 90 min; 100% = 57 uM dopamine signal | potentiation, % (concentration not given with the values) | 360,000 tested, 0.23% active | AID 624464, 2012; active = potentiation of 50% or more; inconclusive = 30% to 50%; inactive = 30% or less;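 also: compound concentration not given in the record; tested on top of an EC20 dose of dopamine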
Target sequence (P14416 whole entry, looked up): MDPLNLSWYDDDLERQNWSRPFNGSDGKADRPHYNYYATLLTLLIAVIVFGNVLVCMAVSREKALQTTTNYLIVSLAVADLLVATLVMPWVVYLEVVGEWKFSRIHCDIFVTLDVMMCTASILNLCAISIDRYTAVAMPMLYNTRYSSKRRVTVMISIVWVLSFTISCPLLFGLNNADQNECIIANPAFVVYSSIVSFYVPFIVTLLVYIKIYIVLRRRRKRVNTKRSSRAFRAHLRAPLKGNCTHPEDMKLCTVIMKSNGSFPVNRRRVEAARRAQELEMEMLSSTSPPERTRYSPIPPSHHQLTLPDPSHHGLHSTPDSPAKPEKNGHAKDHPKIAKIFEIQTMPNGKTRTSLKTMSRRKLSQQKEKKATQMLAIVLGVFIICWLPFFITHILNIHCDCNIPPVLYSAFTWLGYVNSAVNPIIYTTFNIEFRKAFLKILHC
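PathHunter beta-arrestin assay in DiscoveRx D2 cells. Compounds were added with an EC20 of dopamine (50 nM final) for 90 min at 37 deg C. Luminescence was read 1 h after detection reagent, with 57 uM dopamine as the EC100 control.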
D2 agonist: Beta-Arrestin HTS for Positive Allosteric Modulators of the Human D2 Dopamine Receptor: Agonists | 360,000 tested, 0.084% active | D(2) dopamine receptor (Homo sapiens), P14416 | AID 624465, 2012 | activation, % (no concentration beside the values) | DiscoveRx PathHunter D2 beta-arrestin, luminescence, 90 min; 100% = 57 uM dopamine signal; in the data active = activation above about 40%; inconclusive = about 15% to 40%; inactive = below about 15%; also: compound concentration not given in the record; the text of the record calls up to 30% inactive
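Agonist mode: compounds alone added to overnight-plated D2 PathHunter cells for 90 min at 37 C, with 57 uM final dopamine (EC100) defining full response. Beta-arrestin recruitment detected by chemiluminescent reagent, read after 1 h at ambient temperature.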
CtBP-E1A blk: qHTS Assay for Inhibitors of the CtBP/E1A Interaction | CtBP / adenovirus E1A interaction (AlphaScreen) | AlphaScreen GST-E1A/His-CtBP binding, 1536-well; stronger effect = lower value; control for the full effect not named in the record | activity change, % (no concentration beside the values) | 340,000 tested, 0.49% active | AID 651724, 2012; in the data active means activity change below about -65%; inconclusive means about -30% to -65%; inactive means above about -30%; also: % is scaled to controls: 0 for no effect and ±100 for the full control effect; compound concentration not given in the record
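In 5 uL wells, 23 nL compound meets equimolar GST-E1A and His-CtBP (5X stock 125 nM each) for 2 h, 37 °C. Beads (5X, 50 ug/mL) then 1 h, 37 °C, dark.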
PINK1 expr mod: A Quantitative High throughput Screen to Identify Chemical Modulators of PINK1 Expression | PINK1 immunofluorescence, high-content cytometry, 24 h | Potency, µM (highest dose often 76.6 µM), for inactives: at the highest dose activation (PINK1 increase), usual class: activators | 410,000 tested, 0.2% active | AID 624263, 2012; active = well fitted activation curve with a large enough effect; inconclusive = small, poorly fitted or top-dose-only effect; inactive = flat fitted curve, though single readings scatter; cell line not stated here;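 also: potency is read from the fitted curve at half-maximal effect; % of control where 0% means no effect; nearly all actives have a fitted effect of over 65% in size; a mitochondrial uncoupler was the plate control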
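Fluorescence from anti-PINK1 antibody, together with nuclear and cell stains, was scanned on a laser-scanning cytometer. Before staining, stable-line cells were incubated 24 hours with compounds at 5 concentrations; primary antibody 12 h at 10 degrees C.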
Six1-Eya2 inh: qHTS Assay for Inhibitors of the Six1/Eya2 Interaction. Homeobox protein SIX1 (Homo sapiens) + Protein phosphatase EYA2 (Homo sapiens), …. AlphaScreen GST-Six1/His-Eya2 binding, biochemical; stronger effect = lower value; control for the full effect not named in the record. 360,000 tested, 0.56% active. AID 651725, 2012. activity change, % (test concentration not listed); in the data active = activity change below about -65%; inconclusive = about -30% to -65%; inactive = above about -30%; also: % is scaled to controls: 0 for no effect and ±100 for the full control effect; compound concentration not given in the record
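Compounds are tested against tagged Six1 and Eya2 proteins bridged by glutathione donor and nickel acceptor beads; after a one-hour incubation at 37 °C without light, AlphaScreen emission is recorded.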
Active calls of the source: *; u = inconclusive; x = not tested or not shown; [ ] = another dose, or the depositor's remark.

SMILES	TRPV1 PAM	Sfp PPTase inh	D2 potentiator	D2 agonist	CtBP-E1A blk	PINK1 expr mod	Six1-Eya2 inh
Cc1noc(C)c1S(=O)(=O)N(C)C[C@H]1OCCCC[C@@H](C)Oc2ccc(NC(=O)CCCN(C)C)cc2C(=O)N([C@H](C)CO)C[C@@H]1C	x	x	-9	-2.3	2	1.5%	0
Cn1cccc1Cc1nnc(SCC(=O)NC2CCCC2)n1-c1ccc(F)cc1	-7	-20%	2	-2.9	-4	0.7%	-3
COc1ccc(C2C3=C(CCCC3=O)Nc3nc(C(F)(F)F)nn32)c(OC)c1OC (centres undefined)	-19	-12%	-5	-0.7	6	-1.6%	-3
CCOc1ccc(-n2c(SCC(N)=O)nc3sc4c(c3c2=O)CCN(C)C4)cc1	2	-3%	-4	-5.1	4	2.5%	-24
Cc1ccnc(N/C=C(/NC(=O)c2ccccc2)C(=O)N/N=C\c2ccc(Cl)cc2)n1	2	5%	-15	-5.8	x	-0.5%	-5
O=C(NC1CCCCC1)N1CCCCCC1	2	8%	-6	-3.5	-8	x	-3
CCCOc1ccc(N2C(=O)CC(N3CCN(CCN=CC4C(=O)CC(C)(C)CC4=O)CC3)C2=O)cc1 (centres undefined)	-28	-15%	-4	0.1	5	0.8%	6
CCNc1ccc(C(=O)OCC(=O)N2c3ccccc3NC(=O)C2(C)C)cc1[N+](=O)[O-]	-4	-9%	5	-4.7	-11	u	-25
COc1cc(Cl)c(C)cc1NC(=O)[C@@H]1CCCN1C(=O)c1cccs1	-6	7%	-6	-2.0	0	2.0%	-8
CS(=O)(=O)N(CC(=O)N/N=C/c1cccs1)c1cccc(Cl)c1Cl	-2	12%	2	-1.8	2	1.8%	-4
Cc1cc(C)n2nc(SCc3ncc(-c4ccccc4)o3)nc2n1	21	5%	-13	-6.4	-1	-0.3%	4
O=C(NNC(=S)NC(=O)c1ccc(Br)cc1)c1cccc([N+](=O)[O-])c1	-9	-6%	-3	-0.1	x	6.5%	-16
Cc1nn2c(NCCN(C)C)c3c(nc2c1-c1ccccc1)CCCC3	3	6%	-13	2.4	-15	-0.8%	-13
CC(C)(CNC(=O)c1ccc([N+](=O)[O-])c(Cl)c1)CNC(=O)c1ccc([N+](=O)[O-])c(Cl)c1	x	12%	-9	3.8	-4	-3.0%	-13
CCN1CCc2nc(NC(=O)c3ccc4c(c3)OCCO4)sc2C1	-9	4%	-8	0.2	5	2.7%	-2
NC(=O)c1ccc(NS(=O)(=O)c2ccc(Br)s2)cc1	6	x	-1	0.0	x	2.2%	-2
CC(=O)c1ccc(NC(=O)CCCN2C(=O)/C(=C/C(C)=C/c3ccccc3)SC2=S)cc1	-10	12%	-2	-2.4	1	22µM*	-3
Cc1ccc(C(=O)COC(=O)c2n[nH]c(=O)c3ccccc23)cc1	2	0%	-2	-1.1	-6	-1.0%	9
CCC(C)(C)NC(=O)C(c1ccncc1)N(C(=O)c1sc(C)nc1C)c1ccc(F)cc1 (centres undefined)	9	24%	-10	-4.0	-3	1.3%	-2
NC(=O)CSc1nc2ccccc2nc1SCC(N)=O	19	16%	-3	0.5	4	0.4%	0
CC1CC(c2ccccc2)n2nc(NC(=O)CCc3ccccc3)nc2N1 (centres undefined)	2	12%	-20	0.9	-13	-1.1%	-9
Cc1oc(S(=O)(=O)N2CCOCC2)cc1C(=O)Nc1ccc(F)cc1	-26	12%	-9	-1.0	1	1.6%	-2
Cn1c(CNC(=O)C(Cc2ccccc2)NC(=O)c2ccccc2)cc(=O)n(C)c1=O (centres undefined)	-3	14%	-1	-4.1	42	-1.1%	20
COc1cc(/C=N/n2cnnc2)ccc1OCC(=O)N1CCOCC1	-2	6%	-5	-3.0	0	-1.3%	4
CC(C)(C)c1ccc(C(=O)N2CCCN(c3ccc([N+](=O)[O-])cn3)CC2)cc1	-9	16%	-5	-4.1	x	2.6%	-2

The listing continues:
SMILES	TRPV1 PAM	Sfp PPTase inh	D2 potentiator	D2 agonist	CtBP-E1A blk	PINK1 expr mod	Six1-Eya2 inh
COc1ccc(S(=O)(=O)N(C)C)cc1NC(=O)C1CCN(c2ncnc3sc(C)c(C)c23)CC1	x	x	0	3.6	-20	0.1%	-8
CC(C)CC(=O)NC(=S)Nc1nc(-c2cccc3ccccc23)cs1	3	-13%	-22	-6.3	-3	0.1%	-6
CCN1CCCC1CNC(=O)CCNC(=O)c1cc(OC)c(OC)c(OC)c1 (centres undefined)	24	20%	-16	-0.5	0	6.2%[38.3 µM]	0
COc1ccccc1C(=O)Nc1nnc([C@@H]2C[C@H](O)[C@@H](CO)O2)s1	x	x	-6	-0.5	-15	2.1%	9
COc1ccc(-c2sc3ccc(N4CCOCC4)cc3c2C#CCCO)cc1	x	x	-8	0.3	x	9.1%	0
O=C(N/N=C/c1ccccc1O)NC12CC3CC(CC(C3)C1)C2	2	10%	-5	-12	-7	11%	1
Cc1nnc2sc(-c3ccc(-c4ccc(Cl)c(C(F)(F)F)c4)o3)nn12	-9	-6%	7	-2.3	0	9.5%	-1
Nc1nc(SCCO)[nH]c(=O)c1NC(=O)c1ccc(Br)o1	7	0%	-9	-3.1	12	-0.5%	13
COC(=O)c1sccc1NC(=O)CC1C(=O)NCCN1C(=O)Nc1ccccc1 (centres undefined)	1	5%	-1	-1.9	5	4.8%	5
Cc1ccc[n+](C(C)C(=O)c2ccc(Cl)cc2)c1 (centres undefined)	-2	14%	-4	-6.2	2	1.1%	1
CC(Nc1nc(=S)nc(Nc2ccc(F)cc2)[nH]1)c1ccccc1 (centres undefined)	-1	45µM*	-6	-0.3	x	18%	-2
O=C(Cn1cc([N+](=O)[O-])cn1)NCC1CCCO1 (centres undefined)	1	5%	-12	-1.5	2	2.3%	2
O=C(COC(=O)CNC(=O)c1ccc(F)cc1)Nc1cccc(S(=O)(=O)N2CCCC2)c1	13	17%	-4	-2.1	-2	0.1%	-1
CC(C)(C)c1ccc(S(=O)(=O)N2CCN(CC(O)COCC3CCCO3)CC2)cc1 (centres undefined)	1	x	-2	-1.9	x	0.6%	-1
O=C(OCC#CCSc1nnc(-c2ccccc2)o1)c1cccs1	-12	-2%	11	-1.0	22	9.7%[38.3 µM]	22
COc1ccc(-n2nc(C(=O)NCC(=O)NC3CCCC(C)C3C)c3ccccc3c2=O)cc1 (centres undefined)	6	24%	-1	1.2	0	-0.7%	8
Cc1ccc2nc(SCC(=O)NCc3ccco3)nc(=O)n2c1	22	x	-9	-4.4	8	2.9%	-2
O=C(NCc1cccs1)C(=O)c1cn(CC(=O)N2CCOCC2)c2ccccc12	u	13%	-2	-5.2	3	0.6%	11
CCc1nn(C(CC)C(=O)NCCCc2ccccc2)c(=O)c2cc3occc3n12 (centres undefined)	6	-8%	-15	0.4	0	-0.4%	1
Cc1nc(-c2ccc(S(=O)(=O)N3CCN(C(c4ccccc4)c4ccccc4)CC3)s2)cs1	-17	-9%	-3	-1.5	-3	-0.1%	-19
Cc1cccc(S(=O)(=O)NC(=O)C2(C)CCN2C(=O)C2(c3ccc(Cl)cc3)CCC2)c1 (centres undefined)	x	x	-11	-1.2	4	1.1%	-12
COC(=O)C1=C(O)/C(=C/c2ccc(OCC(=O)Nc3ccc(OC)cc3)cc2)N=C1C	x	x	-1	-2.6	3	-0.3%	0
CC(C)(C)N(NS(=O)(=O)c1ccc(F)cc1)c1ccccc1	-20	-30%	-5	-2.3	7	12%	12
Cc1ccc(/C=N/NC(=O)c2cccc(S(=O)(=O)N3CCOCC3)c2)o1	5	-17%	-3	-1.6	-15	0.5%	-11
O=C(Cc1ccccc1F)NC1CCSc2ccccc21 (centres undefined)	4	-5%	-8	-2.2	-13	1.5%	-4

The results go on.
SMILES	TRPV1 PAM	Sfp PPTase inh	D2 potentiator	D2 agonist	CtBP-E1A blk	PINK1 expr mod	Six1-Eya2 inh
COc1cc([N+](=O)[O-])ccc1NC(=O)NCc1ccco1	-27	-7%	-15	-5.5	-14	-0.3%	-11
COc1ccc(/C=N\NC(=O)CCc2c(C)n[nH]c2C)c(OC)c1OC	6	18%	-7	-3.9	-5	0.1%	-1
O=C(Nc1ccccc1Cl)C(=O)c1cn(CC(=O)N2CCOCC2)c2ccccc12	28	23%	-9	-1.3	x	9.8%	4
COC(=O)c1cccc(NC(=O)NC2CCCN2S(=O)(=O)c2ccc(Cl)cc2)c1 (centres undefined)	29	21%	-4	2.4	22	1.9%	-8
CC(C)Cc1cc(C(=O)Nc2sc3c(c2C#N)CCC3)no1	u	56µM*	-3	-7.1	-4	4.5%	6
COc1cc(C(=O)NCC(=O)N2CCN(S(=O)(=O)c3ccccc3C(F)(F)F)CC2)cc(OC)c1OC	x	x	3	2.1	7	9.3%	3
O=C(c1ccco1)N1CCN(C(=O)C(Cc2ccccc2)NS(=O)(=O)c2cccs2)CC1 (centres undefined)	1	-16%	-8	-0.7	-3	-3.2%[38.3 µM]	-2
COc1cc2c3c(c1)C1(C(=O)N3C(C)(C)C=C2C)C(C#N)=C(N)Oc2cc(C)oc(=O)c21 (centres undefined)	0	-13%	-1	0.3	2	-2.4%	1
CCCC(=O)Nc1ccccc1NC(=O)c1cc(OC)c(OC)c(OC)c1	14	3%	-10	0.5	-1	0.6%	7
CCn1c(=O)c2cc(C(=O)N(C)CC(OC)OC)sc2c2ccccc21	14	11%	-4	4.0	x	0.6%	10
CCOC(=O)c1nn(-c2ccccc2F)c(C)c1C(C)=O	x	19%	14	-1.4	2	-1.7%	7
CC1(C)CC(NC(=O)c2ccccc2Cl)CC(C)(C)N1	11	20%	4	-2.5	-2	0.9%	1
CC(C)c1nccn1CCC(=O)O	-5	-2%	-6	-0.6	5	u	3
O=C1c2ccccc2C(=O)N1c1ncn[nH]1	-16	3%	1	-9.5	-3	2.0%	1

Nothing new here: entries from further up.
SMILES	TRPV1 PAM	Sfp PPTase inh	D2 potentiator	D2 agonist	CtBP-E1A blk	PINK1 expr mod	Six1-Eya2 inh
CC(C)c1nccn1CCC(=O)O	-5	-2%	-6	-0.6	5	u	3
O=C1c2ccccc2C(=O)N1c1ncn[nH]1	-16	3%	1	-9.5	-3	2.0%	1

Compound activity from PubChem BioAssay.
